VDR inhibitor – inhibitors of human vitamin D receptor | P11473 | VDR-SRC2-3 peptide fluorescence polarization, 2 h | Potency, µM, inactives show max response, negative = inhibition, most hits filed as inhibitors | 400,000 compounds, 0.93% hits | AID 504847; active = well fitted inhibition curve with a large enough effect; inconclusive = small, poorly fitted or top-dose-only effect, or another doubt; inactive = no such curve, though single readings can be large or run the other way; note: series mostly up to about 120 µM
Target sequence (P11473 whole entry, looked up): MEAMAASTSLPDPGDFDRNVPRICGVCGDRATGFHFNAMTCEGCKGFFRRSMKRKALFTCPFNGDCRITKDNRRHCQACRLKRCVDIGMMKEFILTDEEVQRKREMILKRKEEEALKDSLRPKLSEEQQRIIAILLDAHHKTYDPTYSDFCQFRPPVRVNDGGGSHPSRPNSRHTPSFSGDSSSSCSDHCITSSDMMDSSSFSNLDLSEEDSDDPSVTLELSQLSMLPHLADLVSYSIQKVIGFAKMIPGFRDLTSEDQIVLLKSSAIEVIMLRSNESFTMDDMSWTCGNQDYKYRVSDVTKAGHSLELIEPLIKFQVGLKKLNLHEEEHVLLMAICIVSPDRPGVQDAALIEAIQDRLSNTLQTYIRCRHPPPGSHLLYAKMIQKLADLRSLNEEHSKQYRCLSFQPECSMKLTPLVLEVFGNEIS
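Compounds are added to VDR with labelled SRC2-3 coactivator peptide and held 2 h at room temperature. Inhibition of the VDR–peptide interaction is then read as a change in fluorescence polarization.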
* marks the source's active call; other numbers are inactive results; ? = inconclusive; & = joins results of further samples; ! = repeats disagree. % is set by controls: 0 for no effect and ±100 for the full control effect; potency is the fitted concentration of half-maximal effect.

VDR inhibitor,compound
8%,O=C(Nc1cccc2ccccc12)c1cn(-c2ccccc2)nc1-c1cccs1
-9%,CN(C)c1ccc(C=C(c2nnnn2-c2ccccc2)c2nnnn2-c2ccccc2)cc1
-17%,COc1ccccc1NC(=O)C1=C(C)Nc2nc(-c3ccco3)nn2C1c1ccccc1F (centres undefined)
?,COC(=O)Nc1ccc(S(=O)(=O)N2CCC(C(=O)N3CCC(C)CC3)CC2)cc1
-4%,COC(=O)c1ccc(Cl)c(NC(=O)Cc2ccccc2[N+](=O)[O-])c1
-2%,COC(=O)/C=c1\sc2n(c1=O)C(C)=CC(C)(C)N=2
12%,Cc1ccc(CNC(=O)c2c(-c3ccc(Br)cc3)noc2C)o1
4%,CCOc1ccccc1OC(=O)CN1C(=O)c2ccccc2C1=O
-10%,Cc1ncc(CO)c(/C=N/N=C/c2ccccc2O)c1O
-2%,O=C(NCCc1ccccc1)C1c2ccccc2C(=O)N1C1CC1 (centres undefined)
-21%,CCN1C(=O)CC(N2CCC(c3nc4ccccc4[nH]3)CC2)C1=O (centres undefined)
-16%,Cc1ccc([C@@H]2[C@@H]3C(=O)N(c4ccccc4)C(=O)[C@@H]3[C@]3(C)C(=O)N(Cc4ccccc4)CC(=O)N23)o1
-1%,O=C(CCc1ccccc1)OCC(=O)c1ccc([N+](=O)[O-])cc1
-10%,COc1ccc(C(CNC(=O)C(Cc2ccccc2)NC(N)=O)N(C)C)cc1 (centres undefined)
-5%,COc1ccc(C(=O)N2CCOC2CNC(=O)C(=O)NCc2ccco2)cc1 (centres undefined)
-5%,COc1cc2ncnc(NCc3ccc(F)cc3)c2cc1OC
-1%,CCOC(=O)C1=C(C)OC(N)=C(C(=O)OCC)C1c1ccncc1 (centres undefined)
7%,CC(C)CNS(=O)(=O)c1ccc(C(=O)Nc2ccc3c(c2)OCO3)cc1
-9%,COc1cccc(CN2CCN(C(=O)c3cccs3)CC2)c1OC
?,CC(C)(C)CN1C(=O)C(=O)NC[C@H]1Cc1ccc(O)cc1
-9%,CCOc1ccc(CCNC(=O)C2CCCN(S(=O)(=O)N3CCOCC3)C2)cc1OCC (centres undefined)
3%,CCc1nc2nc(C)cc(Nc3cccc(C(F)(F)F)c3)n2n1
-12%,Nc1cc(=O)[nH]c(SCC(=O)Nc2ccc([N+](=O)[O-])cc2)n1
10%,O=C(CSc1nc(-c2ccccc2)no1)N1CCN(c2ccccc2)CC1
-5%,CN(C)S(=O)(=O)Nc1ccc(NS(=O)(=O)N(C)C)c(S(=O)(=O)c2ccccc2)c1
1%,COc1ccc(-c2cc(C(F)(F)F)n3nc(C(=O)NCc4ccco4)cc3n2)cc1OC
0%,COc1ccc2c(c1)CC(C(=O)Nc1cc(OC)c(OC)c(OC)c1)CO2 (centres undefined)
0%,O=C(c1ccc(CS(=O)Cc2ccc(Cl)cc2)o1)N1CCN(c2ccc(F)cc2)CC1 (centres undefined)
-20%,Cc1ccc(C)c(-c2cc(C(=O)NC3CC3)c3ccccc3n2)c1
6%,NS(=O)(=O)c1ccc(N/C=C\C(=O)c2ccncc2)cc1
-4%,Oc1c(Cl)cc(Cl)cc1C=Nc1ccc2c(c1)OCCO2
?,COC(=O)c1ccc(/C=C(\C#N)C(=O)NC(C)c2ccccc2)cc1 (centres undefined)
-1%,CCN(C[C@H]1N[C@@](Cc2ccccc2)(C(=O)OC)[C@H]2C(=O)N(C)C(=O)[C@@H]12)C(=O)COc1ccccc1
1%,COc1ccccc1NC(=O)COC(=O)c1c[nH]c(=O)[nH]c1=O
-4%,Cc1nc2cc(C)c(C)cc2s1
13%,O=C(c1ccccc1)c1c[nH]c2ccccc12
0%,O=C(NNC(=O)c1cccc2ccccc12)c1ccc2c(c1)OCO2
3%,CCCn1cnc2cc(NCc3cccc(OC)c3O)ccc21
7%,CCN(C(=O)c1nn(-c2ccc(OC)c(Cl)c2)c(=O)c2c1c1ccccc1n2C)c1cccc(C(F)(F)F)c1
0%,COC(=O)C[C@H](NC(=O)Cn1cnc2c(OCc3ccccc3)ncnc21)C(=O)OC
-1%,COc1cc(/C=C2/C(=N)N3C=CSC3=NC2=O)ccc1OCCCOc1c(C)cccc1C
?,CCOC(=O)c1sc(NC(=O)C2=COCCO2)c(C#N)c1C
-2%,CCOc1ccc(NC(=O)CN2C(=O)NC3(CCCCCC3)C2=O)cc1
11%,CS(=O)(=O)N1CCc2cc(S(=O)(=O)NCc3ccccc3Cl)ccc21
9%,COc1ccc(OC)c(CCNC(=O)Cn2nc(C)c3c(C)n(-c4ccccc4)nc3c2=O)c1
6%&5%,COc1ccccc1CN1CCC(CNS(=O)(=O)c2cc(-c3onc(C)c3C)ccc2OC)CC1
-9%,COc1ccc(CCN2C(=S)N(c3ccccc3)C(=O)C2CC(=O)O)cc1OC (centres undefined)
-10%,CCC(Sc1nnc2c3ccccc3n(C)c2n1)C(=O)Nc1nnc(C(C)C)s1 (centres undefined)
-4%,CC12CCC(C(=O)NCc3ccco3)(OC1=O)C2(C)C (centres undefined)
3%,O=C(C1=C[C@H](c2ccccc2)C[C@H](OCCCCO)O1)N1CCOCC1
-2%,COc1cc(/C=N/NC(=O)c2csc3c2CCCC3)ccc1OCCN1CCOCC1
-15%,Cc1ccc(C#N)c(SCc2cccc(Br)c2)n1
6%,CCn1c(SCC(=O)N2CCCCCC2)nc2ccccc2c1=O
4%,O=C(Cc1ccccc1)NCC(=O)OCC(=O)c1ccc(F)cc1
5%,COc1ccc(NC(=O)C2Cc3ccccc3C(=O)O2)cc1 (centres undefined)
-14%,CC(C)c1c(O)nc(SCC(=O)Nc2ccc3c(c2)CCC3)[nH]c1=O
18%,O=S(=O)(c1cc(C(F)(F)F)ccc1Cl)N1CCCCCC1
7%,CC(C)(C)C(=O)Nc1nc2c(s1)CN(Cc1ccccc1)CC2
-6%,Nc1ccc(SCc2cccnc2)cc1
-4%,O=C1C(=O)N(Cc2cccnc2)C(c2ccccn2)/C1=C(/O)c1ccccc1 (centres undefined)

Additional structures.
VDR inhibitor,compound
-8%,CN(CCCC(=O)O)c1ccc(N=Nc2ccc([N+](=O)[O-])cc2)cc1
1%,COc1ccc(C(=O)On2c(-c3ccc(Br)cc3)nc3ccccc3c2=O)cc1
14%,CC(C)Oc1ccccc1/C=N/NC(=O)c1ccccc1Cl
6%,CCc1c(C)c2ccc(OCC(=O)OC(C)C)c(C)c2oc1=O
?,COc1cc(/C=C/C(=O)c2ccc3c(c2)OCCO3)cc(Br)c1OCC(=O)N(C)C
12%,CC1CCN(C(=O)CN2CC(C)Sc3ccccc32)CC1 (centres undefined)
89µM*!,Cc1cccc(C(=O)Nc2nnc(S(=O)(=O)N(C)Cc3ccco3)s2)c1
-8%,CCOC(=O)C1=C(C)N(C)C(=O)NC1c1ccc2c(c1)OCO2 (centres undefined)
1%,C=CC[n+]1c(C)csc1Nc1cccc(Br)c1
13%,CC(=O)Nc1ccc(NC(=S)NC(=O)C2CC2)cc1
18%,CCCn1cc(S(=O)(=O)c2ccccc2)c(=O)c2cc(F)c(N3CCCC3)cc21
-2%&17%,Cc1ccc(NC(=O)Cn2cc(C(=O)C3CC3)c3ccccc32)c(C)c1
-15%,Cc1cc(N/N=C/c2ccccc2O)nc(N2CCOCC2)n1
13%,COc1cc(C(=O)NC(=S)Nc2cccc3nc(C)ccc23)cc(OC)c1OC
-3%,CC1CCC2C(=O)N(c3cccc(C(=O)Nc4ccc(F)cc4)c3)C(=O)C2C1 (centres undefined)
-4%,C[C@@H](O)C1NC(=O)[C@H](CCCCN)NC(=O)c2cc([N+](=O)[O-])cc(I)c2OCC[C@@H](C(N)=O)NC1=O (some centres undefined)
13µM*,O=C1C(c2ccccn2)=[N+]([O-])c2ccccc21
-11%,Cc1cc(C)c2c(CN3CCOCC3)cc(=O)oc2c1C
-15%,N#CC1=C(N)N(c2ccccc2)C(c2cccc([N+](=O)[O-])c2)C1(C#N)C#N (centres undefined)
-9%,Cc1cc(C)cc(-c2nnc(SCC(=O)NCC3CCCO3)o2)c1 (centres undefined)
-3%,O=C(c1ccc2c(c1)N(Cc1cccc(Cl)c1)C(=O)c1ccccc1S2(=O)=O)N1CCCC1
2%,Cc1nn(C)c2c1c(C(F)(F)F)cc(=O)n2CC(=O)NC(C)(C)C
-8%,CCNc1cc(N2CCN(C3CCCCC3)CC2)c2noc3c2c1C(=O)c1ccccc1-3
1%,Cc1ccccc1OCCCCn1cnc2ccccc21
-2%,Cc1ccc(S(=O)(=O)Nc2ccc(Nc3ccccc3)cc2)cc1
-6%,O=C(Cc1ccccc1)N1CCc2[nH]nc(-c3ccccc3)c2C1
-6%,COc1ccccc1C(CC(=O)Nc1ccc(Cl)cc1)c1ccc(OC(C)C)cc1 (centres undefined)
-7%,O=C(NCC(=O)N(c1ccc2c(c1)OCO2)C(C(=O)NC1CCCC1)c1cccs1)c1ccco1 (centres undefined)
6%,O=C(Nc1cccc2c1CCCC2)c1ccccc1F
-1%,O=C(CN1C(=O)NC2(CCOc3ccccc32)C1=O)Nc1cccc(Cl)c1 (centres undefined)

Pulled one by one from above:
VDR inhibitor,compound
13µM*,O=C1C(c2ccccn2)=[N+]([O-])c2ccccc21
-4%,Oc1c(Cl)cc(Cl)cc1C=Nc1ccc2c(c1)OCCO2
-2%,COc1cc(/C=N/NC(=O)c2csc3c2CCCC3)ccc1OCCN1CCOCC1

Back to the main list with the 2 entries that preceded the break.
VDR inhibitor,compound
6%,O=C(Nc1cccc2c1CCCC2)c1ccccc1F
-1%,O=C(CN1C(=O)NC2(CCOc3ccccc32)C1=O)Nc1cccc(Cl)c1 (centres undefined)
-3%,CCc1ccc(-c2nnn(CCC#N)n2)cc1
1%,Cc1ccc(C(=O)Nc2ccccc2C(=O)NCc2cccnc2)cc1
10%,Cc1ccc(Cl)cc1N1CCN(C(=O)Cn2nc(C)c3sc4ccccc4c3c2=O)CC1
8%,CCOC(=O)C1CCN(C(=O)c2cc(CN3C(=O)c4ccccc4C3=O)ccc2OCC)CC1
-5%,Cc1ccc(NC(=O)CSCc2ccco2)cc1
13%,O=C(NCc1cccnc1)Nc1ccc(Cl)cc1
20%,COc1ccc(N=c2sc3ccccc3n2C)cc1
-3%,O=C(OCc1ccccc1)C1=NNC2C(=O)N(c3ccccc3)C(=O)C12 (centres undefined)
-15%,CCC(C)NC(=O)CSc1nc2cc3c(cc2c(=O)n1CCCC(=O)NCCc1ccc(OC)c(OC)c1)OCO3 (centres undefined)
9%,O=C(N/C(=C\c1cccs1)C(=O)N1CCOCC1)c1cccs1
-4%,COc1ccc(/C=C/C(=O)OCC(=O)NC(C)CCc2ccccc2)cc1OC (centres undefined)
-11%,O=C(/C=C/c1ccc(F)cc1)c1ccc(N2CCOCC2)cc1
?,c1ccc(N2CCN(c3nc4cc5c(cc4s3)OCO5)CC2)cc1
?,CC(=O)NC1=NN(C(C)=O)C(c2ccccc2)S1 (centres undefined)
-8%,COc1ccc(OC)c(NC(=O)c2ccc(S(=O)(=O)N3CCOCC3)cc2)c1
10%,COc1ccc(CCNC(=O)C2CCN(C(=O)c3ccccc3C)CC2)cc1
-2%,COC(=O)C(C#N)C(c1cccnc1)c1c(C)[nH][nH]c1=O (centres undefined)
1%,CC(C)(C)NC(=O)c1cc(C(C)(C)C)c(O)c(C(C)(C)C)c1
-6%,CCOC(=O)c1cnc2c(c(C)nn2CC)c1NCCN1CCOCC1
4%,CCC(C)(C)NC(=O)C(c1ccc(C)cc1)N(Cc1ccco1)C(=O)Cn1nnc2ccccc21 (centres undefined)
4%,CCN1CCCC1CNS(=O)(=O)c1ccc(Cl)c(C(F)(F)F)c1 (centres undefined)
-12%,COc1ccc(N2C(=O)CCC(C(=O)N3CCCCCC3)C2c2ccc(OC)c(OC)c2)cc1 (centres undefined)
0%,C/C(=N\NC(=O)CC1N=C(Cc2ccccc2)NNC1=O)c1ccccc1 (centres undefined)
4%,Cc1ccc2c(CSc3nnc4ccccn34)cc(=O)oc2c1C
9%,CC(C)Cn1cc(NC(=O)NCc2ccccc2Cl)c2ccccc2c1=O
-16%,CC(C)(C)Nc1c(-c2ccc(O)cc2)nc2ccc(Cl)cn12
-23%,CCOC(=O)Cn1c(CCC(=O)O)ccc1-c1ccc(F)cc1
20%,CSc1nc2ccccc2n1CC(=O)Nc1cc(C(F)(F)F)ccc1N1CCOCC1
-7%,CCNC(=S)N(Cc1cc2cc(C)ccc2[nH]c1=O)C1CCCC1
-1%,COc1ccc(Cl)cc1CN1C(=O)NC2(CCCCCC2)C1=O

Gathered by group: those above containing a tert-butyl group
VDR inhibitor,compound
?,CC(C)(C)CN1C(=O)C(=O)NC[C@H]1Cc1ccc(O)cc1
7%,CC(C)(C)C(=O)Nc1nc2c(s1)CN(Cc1ccccc1)CC2
2%,Cc1nn(C)c2c1c(C(F)(F)F)cc(=O)n2CC(=O)NC(C)(C)C
1%,CC(C)(C)NC(=O)c1cc(C(C)(C)C)c(O)c(C(C)(C)C)c1
-16%,CC(C)(C)Nc1c(-c2ccc(O)cc2)nc2ccc(Cl)cn12

A few values from the results shown.
CCc1ccc(-c2nnn(CCC#N)n2)cc1 @ VDR inhibitor = -3%
O=C(N/C(=C\c1cccs1)C(=O)N1CCOCC1)c1cccs1 @ VDR inhibitor = 9%
COc1ccc(OC)c(NC(=O)c2ccc(S(=O)(=O)N3CCOCC3)cc2)c1 @ VDR inhibitor = -8%
Cc1ccc2c(CSc3nnc4ccccn34)cc(=O)oc2c1C @ VDR inhibitor = 4%
COc1ccc(/C=C/C(=O)OCC(=O)NC(C)CCc2ccccc2)cc1OC (centres undefined) @ VDR inhibitor = -4%
CC(C)(C)NC(=O)c1cc(C(C)(C)C)c(O)c(C(C)(C)C)c1 @ VDR inhibitor = 1%

High-throughput results as filed in PubChem.

These rows are one share of the data; rates above refer to the full screens.
